From PubChem
PrP UTR inh: inhibition of PrP 5' UTR reporter expression. cell-based PrP 5' UTR mRNA reporter, plate reader. inhibition, % (no concentration beside the values). 0.35% of 340,000 active. AID 488862;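 active = every replicate at 50% or more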;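 also: 0 = median of the neutral control wells; tested in H4 reporter cells; numbers are from one replicate; inactives centre near -14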
Bead autofluor: flagged as autofluorescent in microsphere protease counterscreen; fluorescence intensity (test concentration not listed); 3.1% of 360,000 active; AID 624483; compound autofluorescence counterscreen, microsphere flow cytometry; active compounds read high;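 active = at least 3 SD above the mean of all compounds, about 16000 in these data; inconclusive = too few beads counted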;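 also: 100 nL of 1 mM stock went into each well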
Sa RN4220 lethal: S. aureus RN4220 growth inhibition | 0.33% of 330,000 active | inhibition, % (concentration not given with the values) | OD600, 16 h;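 active = z-score of -3 or lower and OD600 up to 0.18 on both plates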;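 also: plate controls were untreated cells for no effect and reference antibiotic for full effect; stock transfer was 100 nL into about 80 µL; one replicate is shown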
Sa ugtP lethal: growth inhibition of S. aureus ugtP deletion strain | S. aureus RN4220 ugtP deletion, OD600 growth, 16 h; some inactives read as strong as hits | growth inhibition, % (concentration not given with the values) | 0.54% of 330,000 active;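 active = z-score under -3 and OD600 up to 0.15 on both plates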;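 also: plate controls were untreated wells for no effect and antibiotic for full effect; wells of about 80 µL received 100 nL stock; the first replicate is given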
Mtb hypoxia inh: inhibitors of hypoxia-regulated fluorescent reporter in Mycobacterium tuberculosis; fluorescence inhibition, % (concentration not given with the values); AID 1159583; M. tuberculosis hypoxia-regulated fluorescent reporter, fluorescence; 0.1% of 300,000 active;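 active = 35 to 45% if threefold the growth effect, above 45% if 1.5-fold the growth effect; inactive = the rest, general growth blockers included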;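 also: wells of about 50 µL received 100 nL stock; 0% = vehicle wells and 100% = reference inhibitor wells; whole bacteria with a GFP reporter of the hypoxia response; strong numbers were not always called active; many hits fall short of the cut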
BJeLR viability: BJeLR cell viability loss. BJeLR (HRASV12) viability, CellTiter-Glo ATP luminescence, 48 h; reference of the scale not given here. inhibition, % (test concentration not listed). 0.17% of 300,000 active;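 active = replicate mean above 50%; inconclusive = above 50% but judged a plate artefact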;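 also: 50 nL library stock added to about 25 µL; numbers are from one replicate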
Mtb hypoxia inh growth: recorded beside Mtb hypoxia inh, whose call it bears; growth inhibition, %; measured here: M. tuberculosis growth (absorbance);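 0% = vehicle and 100% = reference antibiotic; read after six days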
Active calls of the source: *; ? = inconclusive; / = not tested or not shown.

1. Cc1ccc(/C([O-])=C(/C(=S)NCc2ccco2)[n+]2ccccc2)cc1[N+](=O)[O-]
2. CCn1c(SCC(=O)N2CCC(C)CC2)nnc1-c1ccco1
3. O=C(Cc1cn2ccsc2n1)Nc1nc2c(s1)CCCC2
4. N#CCSc1ccc(-c2nc3ccccc3[nH]2)cn1
5. COc1cc(/C=C(/NC(=O)c2ccccc2)C(=O)N2CCOCC2)c([N+](=O)[O-])cc1OC
6. COc1ccc(S(=O)(=O)CCc2nnc(NC(=O)c3cccs3)s2)cc1
7. c1ccc(Nc2cccc3ccccc23)cc1
8. CCc1c(C)sc(NC(=O)c2cc(-c3cc(OC)ccc3OC)on2)c1C#N
9. COc1ccc2[nH]c(C)c(C(=O)CN3CCOCC3)c2c1
10. Cc1ccc(C)c(N2CCN(CCCNC(=O)Cn3cc4c(n3)CCCCC4)CC2)c1
Screen / compound no.,1,2,3,4,5,6,7,8,9,10
PrP UTR inh,-13,4,-11,-49,-4,-12,-5,-47,-6,-32
Bead autofluor,4427,4286,?,4118,5883,4000,5311,21969*,3417,6557
Sa RN4220 lethal,10.0,6.5,-25,6.4,1.3,2.2,9.0,0.9,7.0,0.9
Sa ugtP lethal,3,3,-2,6,4,4,3,-5,4,-1
Mtb hypoxia inh,6,-1,5,2,0,4,/,1,/,/
Mtb hypoxia inh growth,13,0,15,16,-4,0,/,6,/,/
BJeLR viability,-2,8,-12,-1,2,9,/,-4,3,11

11. CC(=O)Oc1ccc2cc(-c3ccccc3)c(=O)oc2c1
12. CCn1c(=O)c2c(nc(SCc3ccccn3)n2C)n(C)c1=O
13. O=C(Nc1ccccc1)C1=C[C@@H](C2CC2)C[C@@H](OCc2ccc(CO)cc2)O1
14. CCC(Cc1ccccc1)NC(=O)CSc1ccsc1[N+](=O)[O-] (stereo unspecified)
15. CCOCCn1c(SC(C)C(C)=O)nc2c1c(=O)[nH]c(=O)n2C (stereo unspecified)
16. CC(NC(=O)Cc1ccsc1)c1ccc(Cl)cc1Cl (stereo unspecified)
17. O=S(=O)(Nc1ccon1)c1cc(Cl)ccc1Cl
18. CCOC(=O)Cc1csc(NC(=O)Cc2ccccc2[N+](=O)[O-])n1
19. OC1(c2ccccn2)COc2ccccc2O1 (stereo unspecified)
20. Cc1c(C(=O)NCCCc2ccccc2)cccc1[N+](=O)[O-]
Screen / compound no.,11,12,13,14,15,16,17,18,19,20
PrP UTR inh,-19,-4,-27,-6,-1,-7,-5,-25,-15,-12
Bead autofluor,3903,5855,3028,4015,2961,3066,5990,2232,5935,7237
Sa RN4220 lethal,-1.8,5.9,/,6.0,2.6,3.7,-1.0,6.0,3.5,6.1
Sa ugtP lethal,8,3,/,-4,8,7,-8,-1,7,4
Mtb hypoxia inh,1,16,/,7,0,0,-4,7,6,5
Mtb hypoxia inh growth,7,9,/,3,-4,4,1,17,7,6
BJeLR viability,0,-9,-4,-4,3,-7,-3,-4,3,20

Full records, looked up by structure. Order of values: PrP UTR inh, Bead autofluor, Sa RN4220 lethal, Sa ugtP lethal, Mtb hypoxia inh, Mtb hypoxia inh growth, BJeLR viability
Record of OC1(c2ccccn2)COc2ccccc2O1 (stereo unspecified) : -15, 5935, 3.5, 7, 6, 7, 3
Record of O=S(=O)(Nc1ccon1)c1cc(Cl)ccc1Cl : -5, 5990, -1.0, -8, -4, 1, -3
Record of Cc1c(C(=O)NCCCc2ccccc2)cccc1[N+](=O)[O-] : -12, 7237, 6.1, 4, 5, 6, 20
Record of CCOCCn1c(SC(C)C(C)=O)nc2c1c(=O)[nH]c(=O)n2C (stereo unspecified) : -1, 2961, 2.6, 8, 0, -4, 3

Other structures:
21. FC(F)(F)Oc1ccc(Nc2nc(N3CCOCC3)nc(N3CCOCC3)n2)cc1
22. O=C(CCNS(=O)(=O)c1ccc(OC(F)(F)F)cc1)Nc1cccc(S(=O)(=O)N2CCCC2)c1
23. CCOc1ccc(CNCCCSc2ncccn2)cc1OC
24. O=C(c1nn(Cc2ccccc2)c(=O)c2ccccc12)N1CCc2ccccc2C1
25. NC(=O)C1CCCN(C(=S)Nc2ccccc2)C1 (stereo unspecified)
26. Cc1ccc(SCC(=O)N2CCc3ccccc32)cc1
27. COc1ccc(CCNc2nnc(C)c(=O)[nH]2)cc1OC
28. COc1ccc(C(=O)NN=Cc2ccc(OC)c(CN3CCc4cc(OC)c(OC)cc4C3C)c2)cc1 (stereo unspecified)
29. CCn1c(SCC(=O)c2cc(C)n(C)c2C)nnc1-c1ccccc1
30. CCOC(=O)N1CCN(C(=O)CS(=O)(=O)c2cn(Cc3cccc(F)c3)c3ccccc23)CC1
Screen / compound no.,21,22,23,24,25,26,27,28,29,30
PrP UTR inh,-11,-16,-8,-7,-8,-48,-17,/,-16,-11
Bead autofluor,4520,3712,4357,3238,8998,2406,8732,/,2440,10030
Sa RN4220 lethal,0.7,-1.7,2.4,9.9,4.3,20,2.1,-2.2,0.0,2.1
Sa ugtP lethal,7,-7,1,5,-1,13,1,-2,7,0
Mtb hypoxia inh,-7,0,9,4,3,15,2,-8,/,5
Mtb hypoxia inh growth,-5,10,4,8,6,7,-3,2,/,1
BJeLR viability,-2,/,-4,-3,-8,-9,6,/,1,2

In the list so far, five contain a halogen:
16. CC(NC(=O)Cc1ccsc1)c1ccc(Cl)cc1Cl (stereo unspecified)
17. O=S(=O)(Nc1ccon1)c1cc(Cl)ccc1Cl
21. FC(F)(F)Oc1ccc(Nc2nc(N3CCOCC3)nc(N3CCOCC3)n2)cc1
22. O=C(CCNS(=O)(=O)c1ccc(OC(F)(F)F)cc1)Nc1cccc(S(=O)(=O)N2CCCC2)c1
30. CCOC(=O)N1CCN(C(=O)CS(=O)(=O)c2cn(Cc3cccc(F)c3)c3ccccc23)CC1
Screen / compound no.,16,17,21,22,30
PrP UTR inh,-7,-5,-11,-16,-11
Bead autofluor,3066,5990,4520,3712,10030
Sa RN4220 lethal,3.7,-1.0,0.7,-1.7,2.1
Sa ugtP lethal,7,-8,7,-7,0
Mtb hypoxia inh,0,-4,-7,0,5
Mtb hypoxia inh growth,4,1,-5,10,1
BJeLR viability,-7,-3,-2,/,2

Next section.
31. c1ccc(CN2CCC(Nc3nc(-c4cccs4)nc4ccccc34)CC2)cc1
32. CC(C)C12CN(C(=O)c3ccccc3[N+](=O)[O-])CC(C(C)C)(CN(C(=O)c3ccccc3[N+](=O)[O-])C1)C2=O
33. Cn1ncc2c1ncn1nc(CCc3ccccc3)nc21
34. COc1cccc(CNC(=O)CCNS(=O)(=O)c2ccc(Br)s2)c1
35. O=C(C1CC1)N1CCN(c2ccc([N+](=O)[O-])cc2)CC1
36. O=C(O)c1ccccc1C(=O)Nc1ccc(-c2csc(-c3ccccc3)n2)cc1
37. O=C1CC(Nc2ccc(N3CCOCC3)cc2)C(=O)N1c1cccc(C(F)(F)F)c1 (stereo unspecified)
38. COC(=O)c1[nH]c2ccc(F)cc2c1NC(=O)Nc1ccc(OC)cc1
39. CCC(CC)NC(=O)Nc1ccccc1C
40. CC(=O)Oc1ccc(Cl)cc1CN(C(C)=O)C1CCCCC1
Screen / compound no.,31,32,33,34,35,36,37,38,39,40
PrP UTR inh,-34,2,-59,-14,/,-32,-56,-17,-11,-6
Bead autofluor,5331,4740,13034,3963,4603,2210,4401,4842,2538,3920
Sa RN4220 lethal,/,2.2,4.6,3.4,3.1,18,0.4,5.9,6.5,8.2
Sa ugtP lethal,/,-1,2,6,5,-5,-19,-7,8,-1
Mtb hypoxia inh,/,10,4,12,-5,3,-2,/,14,9
Mtb hypoxia inh growth,/,13,5,1,-4,-3,4,/,2,6
BJeLR viability,-2,9,-6,-16,-3,-17,0,-2,4,/

41. O=C(CCS(=O)(=O)Cc1ccccc1)NC1CCCCC1
42. O=C(C(c1ccccc1)c1ccccc1)N1CCN(CC(O)COc2ccccc2)CC1 (stereo unspecified)
43. CCCCC(=O)NS(=O)(=O)c1ccc(NS(C)(=O)=O)cc1
44. COc1ccc(C(OC(=O)c2ccco2)C(=O)NCC2CCCO2)cc1 (stereo unspecified)
45. COC(=O)c1nn(-c2ccccc2)c(Cl)c1/C=N/OC(=O)c1ccc(Cl)c(Cl)c1
46. Cc1ccccc1C=NNc1nc2ccccc2c(=O)n1O
47. COc1ccc(C2c3sc(=O)[nH]c3SC3C4CCC(C4)C23)cc1 (stereo unspecified)
48. O=C(O)c1ccc(-c2nc(-c3ccc(Cl)cc3Cl)cs2)cc1
49. Cc1noc(C)c1S(=O)(=O)NCc1ccc(CN(C)C)cc1
50. COc1cc(CN(C)CC2CCCN(CCc3cccc(C(F)(F)F)c3)C2)ccc1O (stereo unspecified)
Screen / compound no.,41,42,43,44,45,46,47,48,49,50
PrP UTR inh,6,7,-32,-3,-4,/,-9,-56,9,-25
Bead autofluor,10711,9878,10430,4425,3358,/,3588,2234,4078,4014
Sa RN4220 lethal,1.1,-0.1,2.6,7.8,/,12,0.6,7.6,2.0,-2.5
Sa ugtP lethal,9,11,5,1,/,5,-1,-3,0,9
Mtb hypoxia inh,5,2,2,3,/,9,4,8,0,5
Mtb hypoxia inh growth,12,6,3,6,/,9,0,5,7,7
BJeLR viability,/,-6,-1,-12,9,/,24,-7,/,8

51. CC[C@]12C(=O)N(C)CC(C3C(=O)N(C)C(=O)C31)N2C(=O)c1ccc(C)cc1 (stereo partly specified)
52. CC(=O)c1c(C(C)=O)c(C)n(-c2nc(-c3ccc(C)c(C)c3)c(C)s2)c1C
53. O=C(Nc1cccc(NC(=O)c2cc([N+](=O)[O-])ccc2Cl)n1)c1cc([N+](=O)[O-])ccc1Cl
54. Nc1nonc1-n1nnc(C(=O)NN=Cc2cccc(O)c2)c1CN1CCCC1
55. Cc1cc2c(c(=O)n1CCN(C)C)C(c1ccncc1)C(C#N)=C(N)O2 (stereo unspecified)
56. Cc1ccc(NC(=O)CN(c2ccc(C)cc2)S(=O)(=O)c2cccc3nonc23)cc1
57. COc1ccccc1-n1c(SCC(=O)NC2CCCCC2)nc2c(c1=O)SCC2
58. CCn1c(-c2cccs2)nc2ccccc21
59. Cc1cccc([N+](=O)[O-])c1
60. S=C(/N=c1/sccn1Cc1ccccc1)NC1CC1
Screen / compound no.,51,52,53,54,55,56,57,58,59,60
PrP UTR inh,/,-26,12,/,-5,-23,-9,-23,-12,-9
Bead autofluor,/,3915,4611,/,3389,2151,5687,3300,5095,6229
Sa RN4220 lethal,2.5,-4.4,1.3,1.9,5.0,5.4,1.9,8.4,5.8,/
Sa ugtP lethal,-4,-29,9,-3,-1,-6,9,17,3,/
Mtb hypoxia inh,-2,13,0,-6,-4,4,-1,/,11,/
Mtb hypoxia inh growth,-1,16,1,-3,-6,-6,3,/,6,/
BJeLR viability,/,-13,2,/,2,-8,2,2,/,2

61. Cc1cc(Br)ccc1NC(=O)CNC(=O)CSc1nccn1C
62. CC(NC(=O)CCCCCNC(=O)N1CCn2c1nc1ccccc12)c1ccccc1 (stereo unspecified)
63. CCN(C(=O)CSc1nnc(C2CC2)n1-c1ccccc1)C1CCS(=O)(=O)C1 (stereo unspecified)
64. CC1=NN2C(=N)/C(=C\c3cc(C)n(-c4ccccc4)c3C)C(=O)N=C2S1
65. CCOC(=O)c1cnc2nc(NCc3ccc(OCc4ccccc4)cc3)[nH]n2c1=O
66. COCCNC(=O)C(NC(=O)C1CCCCC1)C12CC3CC(CC(C3)C1)C2 (stereo unspecified)
67. O=C(COC(=O)CNC(=O)c1ccc(F)cc1)NC1CCCc2ccccc21 (stereo unspecified)
Screen / compound no.,61,62,63,64,65,66,67
PrP UTR inh,-5,8,-7,-11,-12,-16,-24
Bead autofluor,3242,4670,3864,4016,11236,4299,4253
Sa RN4220 lethal,0.0,-7.4,0.6,5.9,-0.7,0.7,4.1
Sa ugtP lethal,10,0,1,5,-7,4,-6
Mtb hypoxia inh,9,4,-5,7,5,9,5
Mtb hypoxia inh growth,9,-4,2,-1,13,-4,-2
BJeLR viability,/,6,/,2,4,3,/
